From PubChem BioAssay
KCNQ2 pot: enhances the rat KCNQ2 potassium channel. O88943. CHO-K1 KCNQ2, FluxOR thallium flux fluorescence; stronger effect = higher value. B-score at 10 µM. actives 0.54% (n = 310,000). AID 2239;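 active = fluorescence ratio B-score at least 3 SD of library B-scores, with initial fluorescence B-score within 3 SD, cut at about 5.3 in these data; same plate scores as AID 2156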;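 note: B-score of peak minus minimum over baseline fluorescence ratio after K+ and Tl+ stimulus; positive B-score means potentiation of KCNQ2 with more thallium influx and brighter signal; only the inactives scoring about 0 or higher are listed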
Target sequence (O88943 whole entry, looked up): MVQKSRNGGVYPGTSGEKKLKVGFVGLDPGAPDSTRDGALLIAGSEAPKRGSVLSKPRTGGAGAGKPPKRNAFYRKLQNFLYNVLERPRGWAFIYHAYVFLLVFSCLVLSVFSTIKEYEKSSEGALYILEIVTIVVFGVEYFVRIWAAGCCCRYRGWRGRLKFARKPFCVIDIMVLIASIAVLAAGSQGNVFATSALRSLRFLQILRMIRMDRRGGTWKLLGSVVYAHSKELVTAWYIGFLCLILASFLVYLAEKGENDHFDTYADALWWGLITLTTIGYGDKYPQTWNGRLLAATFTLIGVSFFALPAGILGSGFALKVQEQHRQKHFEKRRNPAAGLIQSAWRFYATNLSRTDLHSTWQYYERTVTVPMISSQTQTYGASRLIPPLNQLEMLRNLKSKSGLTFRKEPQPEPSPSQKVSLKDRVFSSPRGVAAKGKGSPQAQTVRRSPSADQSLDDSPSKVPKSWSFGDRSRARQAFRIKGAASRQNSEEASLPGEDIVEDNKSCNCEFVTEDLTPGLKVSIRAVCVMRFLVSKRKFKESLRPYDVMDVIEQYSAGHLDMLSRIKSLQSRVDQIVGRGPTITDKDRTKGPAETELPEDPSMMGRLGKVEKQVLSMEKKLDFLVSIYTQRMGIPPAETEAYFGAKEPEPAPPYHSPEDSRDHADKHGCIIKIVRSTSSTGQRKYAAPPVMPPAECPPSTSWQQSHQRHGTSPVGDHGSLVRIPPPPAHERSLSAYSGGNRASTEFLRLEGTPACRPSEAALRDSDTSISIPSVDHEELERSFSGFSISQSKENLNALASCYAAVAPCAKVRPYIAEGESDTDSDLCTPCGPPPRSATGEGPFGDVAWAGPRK
KCNQ2 pot baseline: recorded beside KCNQ2 pot, whose call it bears; B-score; compound at 10 µM; measured here: initial fluorescence intensity artifact check;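 brightness before thallium and not channel activity; 0 = typical well and far values either way flag optical interference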
Starred values were filed as active, the others as inactive. These rows are one share of the data; the hit share may differ from the screen's.

The line under a structure holds: KCNQ2 pot | KCNQ2 pot baseline
CCN(c1ccccc1)S(=O)(=O)c1ccc(C(=O)Nc2ccccn2)cc1
→ 2 | 2.5
CCc1cc2ccc(C)cc2nc1SCC(=O)NNC(=O)c1ccco1
→ 1.8 | 0.24
Cc1onc(C(=O)NN)c1-c1csc(COc2ccc(Cl)cc2)n1
→ 0.02 | 2.4
CC(C)Sc1nc2c([nH]1)c(=N)ncn2Cc1ccccc1
→ 1.3 | -1.6
COc1cc(/C=C/C(C)=O)cc(OC)c1OC
→ 0.73 | -1.2
O=C1NN=C(c2ccccc2)CC1c1c[nH]c2ccccc12 (configuration not stated)
→ 0.44 | -0.54
Cc1cc(C)cc(NC(=S)N2CCC(NC(=O)C3CC3)CC2)c1
→ 0.01 | -0.39
O=C(Nc1ccc(S(=O)(=O)Nc2ccnn2-c2ccccc2)cc1)C(F)(F)F
→ 0.41 | 2.3
Cc1ccccc1NNC(=O)C(=O)NNc1ccccc1C
→ 0.42 | 0.27
CCc1nnc(NC(=O)c2ccc(S(=O)(=O)N3CCN(Cc4ccccc4)CC3)cc2)s1
→ 0.19 | 0.52
COc1cc(CCC(=O)O)on1
→ 0.09 | 0.36
O=C(Nc1nc2c(cc3c4c(cccc42)CC3)s1)c1ccccc1Cl
→ 1.7 | -1.5
Cc1cccc(N=C2CSC(=O)N2)c1
→ 0.61 | 0.64
CCOC(=O)c1sc2nc(N3CCCC3)c3c(c2c1N)CC(C)(C)OC3
→ 0.68 | -0.76
CCOC(=O)N1CCN(C(=O)c2ccc(S(=O)(=O)c3ccc(C)cc3)c(NC(C)=O)c2)CC1
→ 0.13 | -0.86
COc1cc(S(=O)(=O)NCCN2CCOCC2)c(OC)cc1Cl
→ 0.98 | 0.74
Cc1cc(Nc2ccccc2)nc(-c2ccccc2O)n1
→ 0.04 | -0.27
COc1cccc(C(=O)Nc2cc(-c3cn4cccnc4n3)ccc2C)c1
→ 2.7 | -2.3
C=CCNc1nc(N2CCOCC2)nc(N2CCOCC2)n1
→ 0.42 | 0.05
Cc1cc(N2CCN(C)CC2)nc2ccc(NC(=S)NCCCN3CCc4ccccc4C3)cc12
→ 1.3 | -3.8
CC(CCc1ccccc1)NC(=O)C(=O)N1CCOCC1 (configuration not stated)
→ 0.93 | 0.08
CN(CC(O)COc1ccc(S(=O)(=O)N2CCOCC2)cc1Cl)C1CCCCC1 (configuration not stated)
→ 0.31 | 0.93
Cc1ccc(S(=O)(=O)NC(CC(=O)NCC2CCCO2)c2ccco2)cc1 (configuration not stated)
→ 0.92 | 2.4
O=C(CN1CCN(Cc2ccccc2)CC1)NCCc1ccccc1
→ 1.4 | -0.01
O=C(NCCN1CCOCC1)c1ccc2c(c1)N(Cc1ccccc1F)C(=O)c1ccccc1S2
→ 0.04 | -0.09
CCC1=NN2C(=N)/C(=C\c3cccn3-c3c(C)cccc3C)C(=O)N=C2S1
→ 0.45 | -0.92
O=C(CNC(=O)c1ccccc1)Nc1ccsc1C(=O)O
→ 0.23 | 0.45
COc1ccc(C(=O)OCC(=O)NC(C)(C)C)cc1[N+](=O)[O-]
→ 0.01 | -1.4
CC(C)(C)CN1CCN(Cc2c[nH]c3ccccc23)CC1CCO (configuration not stated)
→ 1.2 | -0.93
Cc1nc(CNS(=O)(=O)c2cccs2)cs1
→ 2.8 | -3.6

The final five compounds of the section before come first, to join the parts.
The line under a structure holds: KCNQ2 pot | KCNQ2 pot baseline
CCC1=NN2C(=N)/C(=C\c3cccn3-c3c(C)cccc3C)C(=O)N=C2S1
→ 0.45 | -0.92
O=C(CNC(=O)c1ccccc1)Nc1ccsc1C(=O)O
→ 0.23 | 0.45
COc1ccc(C(=O)OCC(=O)NC(C)(C)C)cc1[N+](=O)[O-]
→ 0.01 | -1.4
CC(C)(C)CN1CCN(Cc2c[nH]c3ccccc23)CC1CCO (configuration not stated)
→ 1.2 | -0.93
Cc1nc(CNS(=O)(=O)c2cccs2)cs1
→ 2.8 | -3.6
Cc1cc(N2CCOCC2)nc(NCc2ccccc2)n1
→ 2.1 | -1.2
CC(C)(C)c1ccc(C(=O)O)c(C(=O)c2ccc(C(=O)O)cc2)c1
→ 0.03 | 0
O=S(=O)(c1ccccc1)N(CC(O)CN1CCOCC1)c1ccccc1 (configuration not stated)
→ 1.9 | 0.68
CCc1noc(C)c1C(=O)NC1CC(C)(C)Cc2c1cnn2-c1ccccc1 (configuration not stated)
→ 0.87 | 1.2
O=[N+]([O-])c1ccc(/C=N\N2CCN(c3ccc(Cl)cc3)CC2)cc1
→ 0.12 | -0.43
CCc1cc2ccc(C)c(C)c2nc1SCC(=O)NNC(=O)c1ccco1
→ 2.4 | 0.06
COc1cccc(Nc2nc(N)nc(C(F)(F)F)n2)c1
→ 2.3 | -0.68
O=C(c1cc(Cl)nc2ccccc12)N(Cc1nnc(-c2ccc(Cl)cc2)o1)C1CC1
→ 1.6 | -0.97
N=c1n(CCO)c2ccccc2n1CCOc1ccccc1
→ 1.7 | -0.08
COc1ccccc1NC(=O)COC(=O)/C=C/c1ccc2c(c1)OCO2
→ 1.7 | -1.3
CCS(=O)(=O)c1ccc(NC(=O)c2ccccc2Cl)c(O)c1
→ 1.2 | 0.03
O=C(c1cc2cc(Cl)cc(Cl)c2oc1=O)N1CCOCC1
→ 0.85 | 0
COC(=O)C1C/C(=N\NS(=O)(=O)c2ccc(C)cc2)c2ccccc2C1 (configuration not stated)
→ 1 | 0.66
Cc1ccccc1NC(=O)C1CCCN1C(=O)NC1CCCCC1 (configuration not stated)
→ 0.36 | -0.31
O=C(CCNS(=O)(=O)c1ccccc1C(F)(F)F)NCc1ccc2c(c1)OCO2
→ 1.6 | -0.75
COC(=O)[C@@H]1C[C@@]2(Br)c3ccccc3N(S(=O)(=O)c3ccccc3)[C@H]2N1C(=O)OC
→ 0.27 | 0.36
CC(C)C(=O)Nc1cc(C(F)(F)F)ccc1N1CCOCC1
→ 0.03 | 0.09
COc1ccccc1CC(=O)NNC(=O)CN(C)S(=O)(=O)c1ccc(Cl)cc1
→ 2 | 0.06
CC(=O)Nc1ccc(/C(C)=N/NC(=O)CN(c2ccccc2Br)S(C)(=O)=O)cc1
→ 0.14 | 0.18
CC(NC(=O)CNC(=O)c1ccco1)c1ccc(S(N)(=O)=O)cc1 (configuration not stated)
→ 0.21 | 1.7
COc1ccc(NC(=O)c2cccc(N3C(=O)C4C5C=CC(C5)C4C3=O)c2)cc1 (configuration not stated)
→ 2.5 | 0.72
CCOc1ccc(NC(=O)CC(C)S(=O)(=O)c2ccc3c(c2)NC(=O)CO3)cc1 (configuration not stated)
→ 1.2 | 0.28
O=[N+]([O-])c1ccc(NC(=S)N2CCOCC2)cc1
→ 2 | -1.4
CC(=O)c1cccc(NC(=O)c2ccco2)c1
→ 0.11 | 0.4
COc1ccc(N(CC(=O)NCCSc2ccccn2)S(C)(=O)=O)cc1Cl
→ 0.78 | 0.06
CCN(c1ccccc1)S(=O)(=O)c1ccc(Cl)c(NC(=O)COC(=O)c2cc(O)c3ccccc3c2O)c1
→ 0.79 | -0.7
CC1CCC(NC(=O)C2CC(=O)N(c3ccc(Cl)cc3)C2)CC1 (configuration not stated)
→ 0.53 | 0.59
Cc1cc(C(=O)Cn2cnc3cc([N+](=O)[O-])ccc3c2=O)c(C)n1CC1CCCO1 (configuration not stated)
→ 0.33 | -0.02
CCn1c(SCC(=O)Nc2cccc(OC)c2)nc2c(c1=O)SCC2
→ 1.8 | 0.28
COc1ccccc1N1CCN(C(=O)CSc2nc3ccccc3[nH]2)CC1
→ 0.08 | 0.15
CCOC(=O)CSC1=C(C#N)C(c2ccc(OC)cc2)C2=C(CC(C)(C)CC2=O)N1 (configuration not stated)
→ 0.92 | -1.4
CC(=O)c1ccc(NC(=O)Nc2ccc(S(=O)(=O)N3CCCC3)cc2)cc1
→ 0.18 | -2.3
O=C(NCCc1ccncc1)Nc1ccc(F)cc1
→ 0.02 | -0.59
CC1(C(=O)NCC2CC2)C=CC2(CCCCC2)N1C(=O)c1ccccc1 (configuration not stated)
→ 0.43 | 3
O=C(COC(=O)c1ccncc1)c1ccc(Br)cc1
→ 0.8 | -0.71
CCOc1ccc(Cl)cc1/C=N/O
→ 0.48 | 0.01
O=C(Nc1ccccc1)Nc1ccc(Br)cc1F
→ 0.72 | 0.05
Cc1cc(C)c(S(=O)(=O)N2CCCOC2CNC(=O)C(=O)NCc2cccs2)c(C)c1 (configuration not stated)
→ 0.02 | -0.24
Cc1ccc(CNC(=O)C2CCC(=O)N(CCc3cccc(F)c3)C2)cc1 (configuration not stated)
→ 0.03 | 0.74
CCOC(=O)N1CCN(C(=O)CN(c2cccc(C)c2)S(=O)(=O)c2ccccc2)CC1
→ 0.44 | -0.1
O=C(O)c1cc(C(F)(F)F)nc2ccccc12
→ 0.49 | 3.3
Cc1ccccc1OCCn1cc(/C=C(\C#N)C(=O)NCc2ccco2)c2ccccc21
→ 0.31 | 0.06
O=C(CSc1nnc(-c2cccnc2)n1-c1ccccc1)N1CCN(c2ccc(F)cc2)CC1
→ 0.63 | -0.78
Cc1ccc(NC(=O)CCC(=O)OC(C(=O)c2ccc(C)c(C)c2)c2ccccc2)c(C)c1 (configuration not stated)
→ 1.1 | -0.42
CCc1nnc(NC(=O)CCC(=O)NC2CCCCCCC2)s1
→ 0.57 | -3
O=C1C(=O)N(CCO)C(c2ccc(Br)cc2)/C1=C(\O)c1ccccc1 (configuration not stated)
→ 0.29 | 1.4
CCOC(=O)CN1C(=O)C(Sc2n[nH]c(-c3ccc(O)cc3)n2)CCc2ccccc21 (configuration not stated)
→ 0.52 | -0.24
O=C(O)CC1(CC(=O)Nc2ccc3ccccc3n2)CCCCC1
→ 1.9 | -0.37
COc1ccccc1-c1nnc(SCC(=O)OC(C)C)o1
→ 0.14 | 0.1
CCOC(=O)c1[nH]c(C)c(C(=O)OCC(=O)N(CC)C2CCS(=O)(=O)C2)c1C (configuration not stated)
→ 1.1 | 1.2
CCN(CCCNC(=O)C1CCCN(S(=O)(=O)CC)C1)c1cccc(C)c1 (configuration not stated)
→ 1.2 | -0.93
CC(C)OC(=O)c1cccc(NC(=O)c2ccccc2)c1
→ 1.3 | 1.1
Cc1cccc(C)c1N(CC(O)Cn1c2ccccc2c2ccccc21)S(C)(=O)=O (configuration not stated)
→ 0.61 | -1.8
Cc1ccc(-c2nc(CS(=O)CC(=O)NC3CC3)c(C)o2)cc1 (configuration not stated)
→ 0.67 | -0.71
O=C(NCCc1nc(-c2ccccc2Cl)no1)c1ccccc1
→ 1.1 | 0.05
COc1ccc(NC(=O)[C@@H](NC(N)=O)C(C)C)cc1Cl
→ 0.35 | -0.7
Cn1c(CNC(=O)CNC(=O)c2ccccc2F)cc(=O)n(C)c1=O
→ 0.08 | 0.48
CC(C)(C)C(=O)N1CCN(C(=O)c2ccco2)CC1
→ 0.22 | -1.5
CC(=O)Nc1cccc(NC(=O)CSc2nnc(Cc3cccn3C)n2CCc2ccccc2)c1
→ 4.5 | -1.2
Cc1c(N=C(N)/N=C(\N)Nc2ccccc2)c(=O)n(-c2ccccc2)n1C
→ 0.86 | 1.8

Next entries follow:
The line under a structure holds: KCNQ2 pot | KCNQ2 pot baseline
COc1ccc2sc(N(CCCN(C)C)C(=O)c3ccc(S(=O)(=O)N(C)Cc4ccccc4)cc3)nc2c1
→ 0.45 | -1
CC(=O)Nc1cccc(C(=O)N(CCc2ccccc2)Cc2ccccc2)c1
→ 0.08 | 0.32
COc1cc(CN2CC(=O)N(c3ccccc3Cl)C2=S)cc(OC)c1OC
→ 2 | 0.19
CNC(=O)c1[nH]cnc1C(=O)N[C@@H](CC(C)C)C(=O)OC(C)(C)C
→ 0.81 | 1.6
COc1ccc(-n2c(C)c(C(C)=O)c(C(C)=O)c2C)cc1OC
→ 0.02 | 0.02
COc1cccc(CNCC(=O)N2C(C)CCCC2C)c1 (configuration not stated)
→ 0.66 | 0.83
CCOC(=O)CCCSc1nnc(CCCCCN2C(=O)c3cccc4cccc(c34)C2=O)o1
→ 0.21 | 0.03
Cc1cc2c(C)nc(N/N=C/c3ccccc3)nc2o1
→ 0.61 | -0.38
O=C(CCl)Nc1ccccc1Sc1ccc(Cl)cc1
→ 0.51 | -0.02
CCOC(=O)C1=C(CC)Nc2ccccc2N=C1N
→ 0.46 | 2.1
Cn1nc(C(=O)NCC2CCCO2)c2ccccc2c1=O (configuration not stated)
→ 0.98 | 0.74
CC(C)(C)C1CCC(OC(=O)c2ccncc2)CC1 (configuration not stated)
→ 0.51 | 0.94
COc1ccc(Cl)cc1N(CC(=O)Nc1ccccc1C(=O)N1CCOCC1)S(C)(=O)=O
→ 0.04 | 0.95
Fc1cccc(/C=N/n2c(C3CCCCC3)n[nH]c2=S)c1
→ 1.9 | 0.31
Cn1nc([N+](=O)[O-])nc1Oc1ccccc1C(=O)N1CCOCC1
→ 0.57 | 0.82
CCOc1ccc(CCNC(=O)CCc2nnc3ccc(N4CCOCC4)nn23)cc1OCC
→ 0.13 | -0.03
COCCNC(=O)CN(Cc1ccco1)C(=O)CCC(=O)Nc1nccs1
→ 0.43 | 0.53
COc1cc2c(cc1OC)CC(=O)N(C)CC2
→ 0.39 | 1.1
COc1ccccc1CC(=O)Nc1ccc2nc(C)sc2c1
→ 0.77 | 0.33
O=C(CN1C(=O)NC2NC(=O)NC21)N/N=C/c1ccc(F)cc1 (configuration not stated)
→ 0.13 | 1.7
COCC(C)NC(=O)CSc1ncnc2sc(-c3ccccc3)cc12 (configuration not stated)
→ 0.59 | -1.2
COCCNC(=O)CN1CCN(C(c2ccccc2)c2ccccc2)CC1
→ 1.1 | 0.01
COc1ccc2c(C)c(CCC(=O)NC3CC3)c(=O)oc2c1
→ 1.1 | 0.68
CC(=O)NCc1cc(-c2ccc(Cl)cc2)no1
→ 0.31 | -1.6
O=C1COc2ccc(S(=O)(=O)NCCc3ccc(Cl)cc3)cc2N1
→ 0.03 | 2.3
CCC(C)CCN1C(Nc2ccccc2)=NC[C@@H]1CC(C)C (some centres not stated)
→ 0.09 | 1.2
COc1ccc(/C=C/C(=O)N2CCNC(=O)C2)c(OC)c1
→ 0.62 | -0.14
